Mtb growth – M. tuberculosis H37Rv growth inhibitors, H37Rv strain (AID 1626). 220,000 compounds, 0.95% hits. M. tuberculosis H37Rv growth inhibition; higher % means a stronger effect. inhibition, % at 10 µM, or IC50 in µM where a hit was titrated;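 active = confirmed in a dose series; inconclusive = inhibition above 80% but not taken into the dose series; inactive = below 80% or under 30% at every dose of the series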;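 note: bacteria incubated seven days before Alamar blue readout; 0% = bacteria only wells and 100% = bacteria with antibiotic wells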
Arbovirus anti – arbovirus infection inhibition; arbovirus infection cell-based antiviral screen; inhibition, % at 10 µM; 200,000 compounds, 0.37% hits; AID 1251;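 active = inhibition from about 30%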;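 note: bluetongue infection of BSR cells; cell survival read as ATP light after 72 h; 0% = infected wells without compound and 100% = uninfected wells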
Mtb betalactam – beta-lactam sensitization of Mtb H37Rv; inhibition, % at 25 µM; AID 434955; 330,000 compounds, 0.27% hits; M. tuberculosis H37Rv growth with meropenem, percent inhibition; hits of this screen are not shown here;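 active = about 74% or more and at least 40 points above the plate without the antibiotic, then above 30% in a dose series; inconclusive = first-round hits that could not be retested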;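 note: growth measured after seven days incubation then overnight dye step; 0% = bacteria only wells and 100% = bacteria with antibiotic; twin plates without the antibiotic show which effects depend on it; some results filed as inactive read as strong as hits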
RecA splice inh – inhibitors of M. tuberculosis RecA intein splicing | P9WHJ3 | cell-free RecA intein splicing, fluorescence | inhibition, %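 (about 9 µM by stock and volumes)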 | 290,000 compounds, 0.75% hits; in the data active = inhibition above about 30%; inconclusive = no clear call, values can overlap the other calls;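 note: 0% = vehicle wells and 100% = reference inhibitor control wells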
Target sequence (P9WHJ3 whole entry, looked up, canonical isoform): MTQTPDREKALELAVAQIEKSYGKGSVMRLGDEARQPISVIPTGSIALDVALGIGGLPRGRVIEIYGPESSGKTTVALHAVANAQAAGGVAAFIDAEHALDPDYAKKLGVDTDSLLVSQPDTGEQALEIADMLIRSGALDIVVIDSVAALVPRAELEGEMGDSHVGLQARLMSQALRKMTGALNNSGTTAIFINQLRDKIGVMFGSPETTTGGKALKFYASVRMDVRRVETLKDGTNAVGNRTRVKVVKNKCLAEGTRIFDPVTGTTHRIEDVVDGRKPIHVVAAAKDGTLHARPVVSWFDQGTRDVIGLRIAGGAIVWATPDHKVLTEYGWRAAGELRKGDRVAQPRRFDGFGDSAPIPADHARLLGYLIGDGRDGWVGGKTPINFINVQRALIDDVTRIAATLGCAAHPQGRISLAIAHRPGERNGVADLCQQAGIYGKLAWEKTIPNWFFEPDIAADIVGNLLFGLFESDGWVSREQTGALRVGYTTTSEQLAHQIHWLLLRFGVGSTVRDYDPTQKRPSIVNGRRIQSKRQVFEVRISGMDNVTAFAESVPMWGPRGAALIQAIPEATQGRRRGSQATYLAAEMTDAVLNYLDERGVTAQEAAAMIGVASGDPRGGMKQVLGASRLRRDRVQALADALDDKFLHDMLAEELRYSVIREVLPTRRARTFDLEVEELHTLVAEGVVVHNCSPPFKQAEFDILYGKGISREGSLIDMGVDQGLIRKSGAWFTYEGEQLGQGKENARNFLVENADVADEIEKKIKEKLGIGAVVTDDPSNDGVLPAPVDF
YopH inh – inhibitors of Yersinia enterocolitica YopH tyrosine phosphatase. fluorescence Ex485/Em525. inhibition, %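 (about 10 µM by stock and volumes)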. 140,000 compounds, 0.16% hits. AID 898;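 active = inhibition of 50% or more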;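 note: controls were vehicle for no effect and minimum signal wells for full effect; inactives centre near -20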
Arbovirus anti repeat – further read-out of Arbovirus anti, marked with its call; inhibition, %; measured here: 10K subset replicate screen; many hits read low in the repeat;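 first of two repeat runs on a subset; 0% = infected and 100% = uninfected wells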
Starred values were filed as active, the others as inactive. A portion of the library, so the mix of outcomes need not match the whole.

`O=C(N/N=C/c1cccc(Br)c1)c1ccc(N2CCCC2=O)cc1` gave Mtb betalactam 5.8 and RecA splice inh -1.0.
`CCOC(=O)N1CCN(C(=O)CSc2nnc(C3COc4ccccc4O3)o2)CC1` (centres undefined) gave Mtb growth inconclusive, Arbovirus anti 8.9, Mtb betalactam 95.9, RecA splice inh -2.5 and YopH inh -33.9.
COc1ccc(S(=O)(=O)N2CCC(C(N)=O)(N3CCCCC3)CC2)cc1 was read as Mtb growth 4.8%, Arbovirus anti 1.0, Mtb betalactam -2.3, RecA splice inh -1.8 and YopH inh -13.0.
`COc1cccc(-n2ccnc2SCC(=O)N2CCCc3ccccc32)c1` gave Mtb growth 0.5%, Arbovirus anti 9.8, Mtb betalactam 4.7, RecA splice inh 2.5 and YopH inh -19.9.
Screening Cc1oc(C(=O)O)cc1CSCc1ccoc1C(=O)O returned Mtb growth 0.0%, Arbovirus anti 2.7, Mtb betalactam 4.7, RecA splice inh -0.9 and YopH inh -49.3.
`C=CCN(CC=C)CC(=O)Nc1cccc(Oc2cnccn2)c1` gave Mtb betalactam -3.5 and RecA splice inh -1.3.
Screening CC(C)N1CCN(Cc2nc3c(s2)CCCC3)CC1CCO (centres undefined) returned Mtb growth -2.2%, Arbovirus anti 6.0, Mtb betalactam -5.8 and RecA splice inh -2.6.
`Cc1ccc2c(c1)C(c1ccccc1)N(C(=O)c1c(F)cccc1Cl)CC(=O)N2` (centres undefined) gave Mtb betalactam -4.2 and RecA splice inh 10.4.
For COCCOC1CCN(Cc2cn(Cc3ccccc3)nc2-c2cc3ccccc3o2)CC1 the results were Mtb growth -13.0%, Arbovirus anti 4.6, Mtb betalactam 1.0 and RecA splice inh 1.4.
CCOc1ccc(CC2CCC(=O)NC2=O)cc1 (centres undefined) was read as Mtb growth 0.8%, Arbovirus anti -3.4, Mtb betalactam -1.3, RecA splice inh -0.1 and YopH inh -31.1.
`Cc1cccc(/C=C2/C(=O)/C(=C/c3ccccc3C)C3CCC2N3C)c1` (centres undefined) gave Mtb growth 9.5%, Arbovirus anti -11.2, Mtb betalactam -9.0, RecA splice inh 3.1 and YopH inh -18.0.
For COc1ccccc1-n1cnc2sc(C)c(C)c2c1=O the results were Mtb betalactam 8.5 and RecA splice inh 10.7.
For COc1ccc(-c2noc(N3CCC(C(=O)Nc4ccccc4Cl)CC3)n2)cc1 the results were Mtb betalactam 4.3 and RecA splice inh -3.4.
`COc1ccccc1C(=O)NC(=Nc1nc2ccccc2o1)NC(=O)c1ccccc1OC` gave Mtb growth 7.1%, Arbovirus anti -8.1, Mtb betalactam 2.2, RecA splice inh 1.9 and YopH inh -3.4.
Screening COC(=O)COc1ccc(S(=O)(=O)NCc2cccnc2)cc1 returned Mtb growth -3.1%, Arbovirus anti -2.1, Mtb betalactam -4.9, RecA splice inh -3.2 and YopH inh -18.6.
For Cc1ccc(-c2cc(C(=O)O)c3ccccc3n2)c(C)c1 the results were Mtb growth -6.1%, Mtb betalactam -5.5 and RecA splice inh -1.6.
O=C(c1ccc(F)cc1)N1CCC(c2ccccc2)C1 (centres undefined) was read as Mtb growth -2.3%, Mtb betalactam 0.5 and RecA splice inh -1.3.
`CCc1ccc(CN(C)C(=O)CCc2nc3ccccc3n(-c3ccc(OC)cc3)c2=O)cc1` gave Mtb growth 12.9%, Arbovirus anti 20.4, Mtb betalactam 5.8 and RecA splice inh 1.5.
Screening Cc1sc2ncnc(Oc3ccc(-n4ccnc4)cc3)c2c1C returned Mtb growth 3.3%, Arbovirus anti -1.9, Mtb betalactam 99.7, RecA splice inh 4.2 and YopH inh -31.8.
For CCC(C)n1c(O)c(/C=N/N2CCOCC2)c(=O)[nH]c1=S (centres undefined) the results were Mtb growth 7.1%, Arbovirus anti 7.4, Mtb betalactam 11.2, RecA splice inh -0.6 and YopH inh -2.6.

By substructure, the compounds so far with an aryl thioether with sulfur outside any ring (2)
`CCOC(=O)N1CCN(C(=O)CSc2nnc(C3COc4ccccc4O3)o2)CC1` (centres undefined) gave Mtb growth inconclusive, Arbovirus anti 8.9, Mtb betalactam 95.9, RecA splice inh -2.5 and YopH inh -33.9.
`COc1cccc(-n2ccnc2SCC(=O)N2CCCc3ccccc32)c1` gave Mtb growth 0.5%, Arbovirus anti 9.8, Mtb betalactam 4.7, RecA splice inh 2.5 and YopH inh -19.9.

The list continues:
For Cc1ccc(C(=O)OCC(=O)Nc2ncc(C(F)(F)F)cc2Cl)cc1NC(=O)c1ccco1 the results were Mtb growth -5.2%, Arbovirus anti -0.3, Mtb betalactam -3.0, RecA splice inh 3.2 and YopH inh 2.4.
COc1ccc(-c2cn(-c3ccc(Cl)cc3)c3[n+]2CCCCC3)cc1 was read as Mtb growth -11.1% and Mtb betalactam -6.9.
Cc1ccc2c(c1)NC(=O)C(CC(=O)NCCN(CC(C)C)CC(C)C)O2 (centres undefined) was read as Mtb growth 3.0%, Arbovirus anti -0.9, Mtb betalactam inconclusive, RecA splice inh -4.0 and YopH inh -21.2.
COc1ccc(C(CC(=O)NCc2ccccc2)Sc2n[nH]c(-c3ccc(Cl)cc3)n2)cc1 (centres undefined) was read as Mtb growth 3.1%, Arbovirus anti 0.8, Mtb betalactam 4.9, RecA splice inh -1.2 and YopH inh -24.0.
For CN(C)S(=O)(=O)c1ccc2[nH]cc(/C=C/c3nc4ccccc4c(=O)n3-c3ccccc3)c2c1 the results were Mtb growth -2.0%, Arbovirus anti -14.4, Mtb betalactam -0.4, RecA splice inh -7.5 and YopH inh -77.4.
For CC(NC(=O)c1cccc(C(F)(F)F)c1)C(c1ccccc1)N1CCOCC1 (centres undefined) the results were Mtb growth -5.9%, Arbovirus anti 9.1, Mtb betalactam -2.2 and RecA splice inh 1.1.
For CCOC(=O)C1=C(CSc2nccn2C)NC(=O)NC1c1cc(C)ccc1C (centres undefined) the results were Mtb growth 3.2%, Arbovirus anti -2.0, Mtb betalactam 0.5, RecA splice inh 3.0 and YopH inh -11.7.
Screening O=C1C=C(Nc2ccc(O)cc2)C(=O)c2ccccc21 returned Mtb growth 5.1%, Mtb betalactam 7.0 and RecA splice inh 72.5*.
For COc1ccc(OC)c(NC(=O)CN(C)S(=O)(=O)c2ccc(Cl)cc2)c1 the results were Mtb growth 4.9%, Arbovirus anti 2.5, Mtb betalactam 11.3 and RecA splice inh -1.9.
Screening O=c1c2cc(F)ccc2[nH]c(=S)n1CCCN1CCOCC1 returned Mtb growth 7.7%, Arbovirus anti 11.0, Mtb betalactam -1.5, RecA splice inh -3.8 and YopH inh 0.8.
COc1ccccc1/C=C/C=C(\C#N)C(=O)NC(C)c1ccccc1 (centres undefined) was read as Mtb betalactam 9.8 and RecA splice inh 0.0.
Screening COc1ccc(CNC(=O)CN(Cc2cccs2)C(=O)CCC(=O)Nc2ccccn2)cc1 returned Mtb growth 1.6%, Arbovirus anti 3.3, Mtb betalactam 4.0 and RecA splice inh -3.7.
For O=C(O)c1cccc(NC(=O)c2cn(-c3ccccc3)nc2-c2ccncc2)c1 the results were Mtb growth 2.5%, Arbovirus anti 5.7, Mtb betalactam 8.6 and RecA splice inh 4.6.
For Cc1cc(NCCO)nc(N2CCOCC2)n1 the results were Mtb growth -0.2%, Arbovirus anti 1.5, Mtb betalactam 1.2, RecA splice inh -2.6 and YopH inh -21.6.
For CS(=O)(=O)c1ccc(C(=O)OCC(=O)NC(=O)C2CCCCC2)cc1[N+](=O)[O-] the results were Mtb growth 7.0%, Arbovirus anti 5.4, Mtb betalactam -4.0 and RecA splice inh 13.7.
CCCCCN(C(=O)CCC(=O)OCC(=O)c1ccc(C(C)CC)cc1)c1c(N)n(CCCC)c(=O)[nH]c1=O (centres undefined) was read as Mtb betalactam -3.6 and RecA splice inh -0.7.
For COc1ccc(S(=O)(=O)N(C)C)cc1NCC(=O)Nc1cccc2ccccc12 the results were Mtb betalactam -4.0 and RecA splice inh 1.1.
Screening OCCN1CCOCCN(CCO)CCN(CCO)CC1 returned Mtb growth -6.8%, Arbovirus anti 1.6, Mtb betalactam -4.2, RecA splice inh -2.0 and YopH inh -38.4.
`Cc1cc2c(c(=O)n1Cc1cccnc1)C(c1ccc(F)cc1)C(C#N)=C(N)O2` (centres undefined) gave Mtb growth 2.0%, Arbovirus anti 2.1, Mtb betalactam -4.3, RecA splice inh -0.5 and YopH inh -49.8.
CCC(CC)=NNc1ccc([N+](=O)[O-])cc1[N+](=O)[O-] was read as Mtb growth 65.0%, Arbovirus anti 4.4, Mtb betalactam 2.4 and RecA splice inh 0.1.
`CCCCn1c(SCC(=O)Nc2ccc(C)c(S(=O)(=O)N3CCOCC3)c2)nnc1C(CC)N(C)C` (centres undefined) gave Mtb betalactam -8.2 and RecA splice inh 0.8.
COc1cc(Cl)cc(NC(=O)CCN2CCN(C)CC2)c1 was read as Mtb growth 0.4%, Arbovirus anti 4.0, Mtb betalactam -2.9, RecA splice inh -1.8 and YopH inh -47.0.
Screening Cc1c2cnn(-c3ccccc3)c(=O)c2c(C)n1CCCC(=O)N1CCN(C)CC1 returned Mtb growth -1.4%, Arbovirus anti -3.1, Mtb betalactam -3.5, RecA splice inh 1.1, YopH inh -28.8 and Arbovirus anti repeat 1.3.
For O=C(c1cc2cc(F)ccc2[nH]1)N(Cc1cccnc1)CC1CCCN(C2CCCCC2)C1 (centres undefined) the results were Mtb betalactam 84.9 and RecA splice inh 0.6.
For Cc1ccc(S(=O)(=O)N2CCCC2)cc1C(=O)NCCN1CCOCC1 the results were Mtb betalactam 6.4 and RecA splice inh -1.0.
CCC1CN(C(=O)NCc2ccc(F)cc2)c2ccccc2O1 (centres undefined) was read as Mtb betalactam -3.9 and RecA splice inh 3.4.
O=S(=O)(Nc1nc2ccccc2s1)c1ccc(Cl)nc1 was read as Mtb growth 1.9%, Mtb betalactam -4.4 and RecA splice inh -2.4.
Screening CC(C)Nc1nc(NNc2nc(Cl)nc(NC(C)(C)C)n2)nc(NC(C)C)n1 returned Mtb growth 1.8% and Mtb betalactam -2.6.
For CC(C)Cc1nc(Nc2ccccc2C#N)c2nnn(Cc3ccccc3)c2n1 the results were Mtb betalactam 8.8 and RecA splice inh 3.1.
Screening Cc1cc(C)n2nc(SCCOc3ccccc3)nc2n1 returned Mtb growth 3.2%, Arbovirus anti 4.7, Mtb betalactam -6.7 and RecA splice inh 0.3.
CCn1nc(C)c(CN2CCCC(CO)(Cc3cccc(Cl)c3)C2)c1C (centres undefined) was read as Mtb growth 2.3%, Arbovirus anti -15.7, Mtb betalactam -4.1 and RecA splice inh 2.5.
`COCCNC(=O)CCCn1c(=O)c2ccccc2n(Cc2cccc([N+](=O)[O-])c2)c1=O` gave Mtb growth 11.4%, Arbovirus anti 4.2, Mtb betalactam -11.4 and RecA splice inh -1.9.
Screening CC(C)(C)NC(=O)NC(=O)COC(=O)c1cc(=O)[nH]c2ccccc12 returned Mtb growth -2.8%, Arbovirus anti -1.6, Mtb betalactam 3.4, RecA splice inh -1.0 and YopH inh -14.3.
`CCN(CC)C(=S)NC(=O)c1cc(OC)c(OC)c(OC)c1` gave Mtb growth 0.5%, Arbovirus anti -2.6, Mtb betalactam 0.8 and RecA splice inh 3.1.
Cc1cc(C(=O)Nc2nccs2)c2cc(F)ccc2n1 was read as Mtb growth 9.0%, Mtb betalactam -3.6 and RecA splice inh -1.7.
For Cc1ccc(SCCCCN2CCOCC2)cc1 the results were Mtb betalactam 2.5 and RecA splice inh -0.4.
Screening C=CCC(C(=O)OC)(C(=O)OC)c1ccc(C(F)(F)F)cc1[N+](=O)[O-] returned Mtb growth -9.3%, Arbovirus anti -1.2, Mtb betalactam -6.5 and RecA splice inh 0.7.
COc1ccc(CNC(=O)[C@@H](NC(=O)C2CCN(C(=O)[C@@H]3CCCN3C(=O)OC(C)(C)C)CC2)C(C)C)cc1 was read as Mtb betalactam -7.5 and RecA splice inh -0.2.
`CC1=NN(C(N)=S)C(=O)C1N=Nc1ccc([N+](=O)[O-])cc1` (centres undefined) gave Mtb betalactam 2.5 and RecA splice inh 2.5.
CN1CCN(S(=O)(=O)c2ccc3c4c(cccc24)C(=O)N3)CC1 was read as Mtb growth 1.5%, Arbovirus anti 3.1, Mtb betalactam -2.7, RecA splice inh -0.1, YopH inh -41.7 and Arbovirus anti repeat -2.1.
Screening CC(=O)N1CCN(C(=O)COC(=O)COc2ccc(C#N)cc2)CC1 returned Mtb betalactam -0.9 and RecA splice inh -1.9.

An excerpt from above in order of number of heavy atoms, low to high:
O=S(=O)(Nc1nc2ccccc2s1)c1ccc(Cl)nc1 was read as Mtb growth 1.9%, Mtb betalactam -4.4 and RecA splice inh -2.4.
Screening CC(C)(C)NC(=O)NC(=O)COC(=O)c1cc(=O)[nH]c2ccccc12 returned Mtb growth -2.8%, Arbovirus anti -1.6, Mtb betalactam 3.4, RecA splice inh -1.0 and YopH inh -14.3.
COc1ccc(CNC(=O)[C@@H](NC(=O)C2CCN(C(=O)[C@@H]3CCCN3C(=O)OC(C)(C)C)CC2)C(C)C)cc1 was read as Mtb betalactam -7.5 and RecA splice inh -0.2.
